KCNQ2 inh: KCNQ2 channel blockers in CHO-K1 cells – cell-based, FluxOR thallium flux, B-score, primary screen (AID 2156); O88943; 20 min; active compounds read low; only compounds with negative scores are shown here; some inactives read as strong as hits; B-score at 10 µM; 310,000 compounds, 1.1% hits;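 active = fluorescence ratio B-score at most minus 3 library SDs, with starting brightness B-score within 2 library SDs, cut at about -5.5 in these data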
Target sequence (O88943 whole entry, looked up): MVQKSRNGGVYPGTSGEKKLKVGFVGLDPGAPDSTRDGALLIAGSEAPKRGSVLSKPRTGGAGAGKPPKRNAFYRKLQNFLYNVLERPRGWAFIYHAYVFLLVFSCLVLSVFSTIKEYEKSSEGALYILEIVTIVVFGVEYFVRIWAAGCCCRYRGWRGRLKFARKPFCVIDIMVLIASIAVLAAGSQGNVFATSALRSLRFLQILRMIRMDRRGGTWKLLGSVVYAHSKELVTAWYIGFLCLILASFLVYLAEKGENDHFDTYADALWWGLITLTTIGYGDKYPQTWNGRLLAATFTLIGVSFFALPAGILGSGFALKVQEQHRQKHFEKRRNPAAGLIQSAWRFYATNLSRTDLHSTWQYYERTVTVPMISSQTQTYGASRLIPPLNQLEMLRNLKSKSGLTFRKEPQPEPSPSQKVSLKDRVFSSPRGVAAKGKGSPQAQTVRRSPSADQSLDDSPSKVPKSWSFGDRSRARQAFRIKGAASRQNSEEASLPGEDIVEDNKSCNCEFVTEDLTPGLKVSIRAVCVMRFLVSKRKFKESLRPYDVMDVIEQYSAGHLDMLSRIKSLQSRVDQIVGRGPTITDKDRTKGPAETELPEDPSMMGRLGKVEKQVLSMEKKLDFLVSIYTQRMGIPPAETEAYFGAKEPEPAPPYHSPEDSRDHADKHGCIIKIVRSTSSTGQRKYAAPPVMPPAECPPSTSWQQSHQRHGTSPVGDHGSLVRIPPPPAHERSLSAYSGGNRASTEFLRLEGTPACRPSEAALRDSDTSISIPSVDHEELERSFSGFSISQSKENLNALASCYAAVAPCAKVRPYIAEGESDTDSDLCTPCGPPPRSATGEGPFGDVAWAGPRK
KCNQ2 inh baseline: further read-out of KCNQ2 inh, marked with its call; B-score; measured here: initial fluorescence intensity artifact check;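 brightness before thallium and not channel activity; 0 = typical well and far values either way flag optical interference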
* hit, by the source's call; i = inactive. Some of the compounds tested. The share of hits here may be higher or lower than overall.

Sequence of screens: KCNQ2 inh baseline, KCNQ2 inh
1	CC(C)OC(=O)CC1C(=O)NCCN1C(=S)NC(=O)c1ccc(F)cc1 (configuration not stated)
    0.57, i
2	COC(=O)c1cccc(NC(=O)c2ccc3c(c2)C(=O)N(C(C)(C)C)C3=O)c1
    0.11, i
3	Cc1ccccc1-c1nc(CS(=O)(=O)CC(=O)NCCN2CCOCC2)c(C)o1
    0.63, i
4	CSCC[C@H](NC(=O)[C@@H]1CSC2c3ccccc3C(=O)N21)C(=O)NC1CCCC1 (some centres not stated)
    -1.4, i
5	COCCNCc1ccc(Cl)cc1Cl
    0.28, i
6	Cc1cc2oc(=O)cc(Cn3ccnc3)c2cc1Cl
    -0.16, i
7	O=C(NC1CCCC1)C1CCN(C(=O)NCc2ccccc2)CC1
    1.9, i
8	COc1ccc(NC(=O)C2CCN(C(=O)c3ccco3)CC2)c(OC)c1
    -3.1, i
9	COc1cccc(/C=C/C(=O)OCC(=O)NC(=O)NC2CCCCC2)c1
    -0.54, i
10	O=C(N=C1SC2CS(=O)(=O)CC2N1CCc1ccccc1)C1CC1 (configuration not stated)
    -1.3, i
11	Cc1ccccc1NC(=O)CN1C(=O)CSc2ccc(S(=O)(=O)N3CCCC3)cc21
    0.14, i
12	Cc1sc2nc(SCc3nnc(-c4cccs4)o3)n(C3CCCC3)c(=O)c2c1C
    -0.7, i
13	COC(=O)c1sccc1NC(=S)Nc1cc(OC)ccc1OC
    -1.9, i
14	O=[N+]([O-])c1cc(Br)cc(C=Nc2ccc3c(c2)OCO3)c1O
    -2.3, i
15	CCc1ccc(NC(=O)CC2C(=O)N(c3cccc(C)c3)C(=O)N2C2CC2)cc1 (configuration not stated)
    0.03, i
16	Cc1ccc(SCc2[nH]nc3c2C(c2cccnc2)C(C#N)=C(N)O3)cc1 (configuration not stated)
    0.15, i
17	COCCn1nnnc1C(c1cccs1)N1CCN(c2ccccc2)CC1 (configuration not stated)
    1.5, i
18	Cc1cc2cc(CNC(=O)c3cccc([N+](=O)[O-])c3)ccc2[nH]1
    0.23, i
19	CCn1c(CN2CCOCC2)nnc1SCC(=O)Nc1ccc(C(C)=O)cc1
    1.8, i
20	COc1ccc(C2C(=O)N(C3CCCCC3)CC(=O)N2CCc2ccccc2)cc1OC (configuration not stated)
    0.05, i
21	CC[C@@H](C(=O)n1nc(C)cc1C)[C@H](NS(=O)(=O)c1ccc(C)cc1)c1ccccc1
    0.44, i
22	Cc1ccccc1C(=O)c1c[nH]c(C(=O)NCCCn2ccnc2)c1
    1.4, i
23	COCCCn1c(SCc2nnc(-c3ccccc3)o2)nc2sc3c(c2c1=O)CCC3
    -0.57, i
24	O=C(O)C1CC(=O)N(c2ccc(Br)cc2)C1 (configuration not stated)
    1.6, i
25	Cc1ccc(OCCn2ccnc2)c(C)c1
    4.7, i
26	COc1ccc(-c2csc(N3C(=O)C4C5c6ccccc6C(c6ccccc65)[C@@H]4C3=O)n2)cc1 (some centres not stated)
    -0.06, i
27	c1ccc(-c2nc(-c3nccc4ccccc34)oc2-c2ccccc2)cc1
    2.6*, -8.6*
28	CCOCCn1c(CN2CCc3ccccc3C2)nc2c1c(=O)n(C)c(=O)n2C
    -0.58, i
29	O=C(Nc1cccc(C(F)(F)F)c1)c1ccc(Cn2cc(Br)cn2)o1
    1, i
30	O=C(/C(=C/O)N=Nc1ccccc1)c1ccco1
    1.4, i

An excerpt of the results above, as a working copy:
Sequence of screens: KCNQ2 inh baseline, KCNQ2 inh
28	CCOCCn1c(CN2CCc3ccccc3C2)nc2c1c(=O)n(C)c(=O)n2C
    -0.58, i
29	O=C(Nc1cccc(C(F)(F)F)c1)c1ccc(Cn2cc(Br)cn2)o1
    1, i
30	O=C(/C(=C/O)N=Nc1ccccc1)c1ccco1
    1.4, i

Taken from above.
#16 in KCNQ2 inh baseline is listed with 0.15
#30 in KCNQ2 inh baseline is listed with 1.4

Next part
Sequence of screens: KCNQ2 inh baseline, KCNQ2 inh
31	O=C(NCCN1CCOCC1)/C(=C/c1ccc(F)cc1)NC(=O)c1ccccc1
    1.2, i
32	Cc1noc(C)c1COC(=O)CCCOc1ccc(Cl)cc1Cl
    -0.63, i
33	OCC1(CO)COC(CCc2ccccc2)=N1
    0.74, i
34	O=C(CN1CCN(S(=O)(=O)c2ccc3ccccc3c2)CC1)N1CCc2ccccc2C1
    2.3, i
35	CCOc1nc(CC)nc(NC(=O)NS(=O)(=O)c2ccccc2Cl)n1
    -0.2, i
36	Cc1nn(CC(=O)NCc2ccc(OC(C)C)cc2)c(=O)c2cc(-c3ccccc3)nn12
    0.11, i
37	CCOc1ccccc1NC(=O)CSc1ccccc1
    -0.83, i
38	COc1ccc(-n2c(C)csc2=S)cc1
    0.06, i
39	Cc1cnc(C(=O)NC2CC(C)(C)Cc3c2cnn3-c2cccc(F)c2)cn1 (configuration not stated)
    -1.3, i
40	Cc1ccccc1N1CC2=C(C1=O)C(c1ccccc1)NC(=O)N2C (configuration not stated)
    1.1, i
41	CCOC(=O)CSC1=N/C(=C/c2ccc(-n3cncn3)cc2)C(=O)N1C(C)=O
    2.3, i
42	Cc1nc(NC(=O)c2ccccc2)sc1-c1csc(NCCc2ccccc2)n1
    -2.5, i
43	CN(C)c1ccc(C(=O)N2CCN(c3cc(C(F)(F)F)nc4ccccc34)CC2)cc1
    -0.5, i
44	O=c1c2sccc2nc(SCc2cc(=O)n3ccccc3n2)n1-c1ccc(Br)cc1
    -0.71, i
45	O=C(CSc1nnnn1-c1ccccc1)N1CCNC1=O
    -0.34, i
46	COc1ccccc1OCc1ccc(C(=O)N2CCCCC2)o1
    0.38, i
47	CC1CN(C(=O)Nc2ccc3c(c2)OCCO3)CC(C)O1 (configuration not stated)
    -0.16, i
48	O=[N+]([O-])C(=C1SCCS1)C(=C(Cl)Cl)N1CCCCC1
    0.38, i
49	CSc1sc(C#N)c2c1/C(=N\O)CCC2
    -0.29, i
50	COc1cc(Nc2ncnc(N)n2)cc(OC)c1
    -0.77, i
51	CCOc1ccc(C(O)(c2ccccc2OC)C(CN2CCCC2)c2ccccc2)cc1 (configuration not stated)
    -1.9, i
52	COc1cc(NC(=O)CSc2nnc(C)s2)cc(OC)c1OC
    0.61, i
53	O=C(NCc1n[nH]c(=S)n1Cc1ccccc1)c1ccc(Cl)cc1Cl
    -0.9, i
54	CC(C)[C@H](NC(=O)Nc1cccc(Br)c1)C(=O)O
    1.7, i
55	COC(=O)c1ccccc1NC(=O)CN1CCc2ccccc2C1
    -0.24*, -7.8*
56	COc1cccc(NC(=O)C2C3C=CC4(O3)C2C(=O)N(CCCN2CCCCC2)C4C(=O)NC2CCCCC2)c1 (configuration not stated)
    1, i
57	Cc1ccc(C#N)c(SCc2ccccc2[N+](=O)[O-])n1
    0.46, i
58	Cc1ccc2c(c1)N(CC(=O)N1CCOCC1)C(=O)CO2
    0.43, i
59	Cc1ccc(OC(=O)CCC(=O)NC(C)c2ccccc2)cc1 (configuration not stated)
    -1, i
60	CC(C)C[C@H](NC(=O)c1nc[nH]c1C(=O)NC(c1ccccc1)c1ccccc1)C(=O)OC(C)(C)C
    0.02, i

Some of these compounds in order of length of the SMILES, smallest number first.
Sequence of screens: KCNQ2 inh baseline, KCNQ2 inh
45	O=C(CSc1nnnn1-c1ccccc1)N1CCNC1=O
    -0.34, i
55	COC(=O)c1ccccc1NC(=O)CN1CCc2ccccc2C1
    -0.24*, -7.8*
57	Cc1ccc(C#N)c(SCc2ccccc2[N+](=O)[O-])n1
    0.46, i
31	O=C(NCCN1CCOCC1)/C(=C/c1ccc(F)cc1)NC(=O)c1ccccc1
    1.2, i

Whole records from above. Screens in order: KCNQ2 inh baseline, KCNQ2 inh
Results for `CC1CN(C(=O)Nc2ccc3c(c2)OCCO3)CC(C)O1` (configuration not stated) : -0.16, i
Results for `O=[N+]([O-])C(=C1SCCS1)C(=C(Cl)Cl)N1CCCCC1` : 0.38, i

Next part:
Sequence of screens: KCNQ2 inh baseline, KCNQ2 inh
61	Cc1cccc(NC(=O)N[C@@H](C)C(=O)O)c1
    0.73, i
62	COCCC(=O)N1CCC(Oc2ccc(C(=O)N(C)C(C)c3ccon3)cc2)CC1 (configuration not stated)
    -1.2, i
63	CSCC[C@H](NC(=O)OCc1ccccc1)C(=O)O
    -2, i
64	CCOc1ccc(N(CC(=O)N2CCCCCC2)S(=O)(=O)c2ccc(C)cc2)cc1
    0.01, i
65	Cc1cc2c(C)ccc(C)c2nc1SCC(=O)c1cccs1
    0.02, i
66	CCOc1cc(C2C(C#N)=C(N)Oc3n[nH]c(-c4ccccc4)c32)ccc1O (configuration not stated)
    0.31, i
67	Cc1ccc(S(=O)(=O)N[C@H](C(=O)OCC(=O)NC(=O)Nc2ccc3c(c2)OCCO3)C(C)C)cc1
    -0.05, i
68	Nn1cnnc1SCC(=O)Nc1ccc(C2CCCCC2)cc1
    -0.49, i
69	CC(=O)c1sc(NC(=O)COc2ccc(C)c(C)c2)nc1C
    -0.89, i
70	Cc1ccc(COc2ccsc2-c2n[nH]c(=S)n2C)cc1
    -0.24, i
71	Cc1ccccc1NS(=O)(=O)c1ccc(C(=O)NCC(c2ccco2)N(C)C)cc1 (configuration not stated)
    -1.3, i
72	CC(C)(C)OC(=O)N/N=C/c1ccc(Br)cc1
    -1.3, i
73	C/C(=N/NC(=O)c1cnccn1)c1cccs1
    0.34, i
74	CCc1ccc(C(C(=O)NC2CCCC2)N(Cc2cccnc2)C(=O)c2csnn2)cc1 (configuration not stated)
    0.61, i
75	CCOC(=O)Cc1csc(NC(=O)COc2ccc3ccccc3c2)n1
    -0.21, i
76	C#CCN(C)Cc1ccccc1
    1.3, i
77	CCC(C)NC(=O)c1cn(-c2cccc(OC)c2)c(=O)c2ccccc12 (configuration not stated)
    -0.01, i
78	O=C(CN1CCN(Cc2ccccc2Cl)CC1)N/N=C/C=C/c1ccccc1[N+](=O)[O-]
    0.21, i
79	O=C(O)Cc1ccc2[nH]c3ccc(CC(=O)O)cc3c2c1
    -0.46, i
80	C=CCNc1nc(N)c([N+](=O)[O-])c(NCCO)n1
    4.3, i
81	COC(=O)c1ccccc1Sc1c(/C=N/OC(=O)c2ccccc2)c(C(F)(F)F)nn1C
    0.68, i
82	O=CN1CCN(C2CC(=O)N(c3ccc(Br)cc3)C2=O)CC1 (configuration not stated)
    1.5, i
83	CCN(C(=O)c1cnc(OC)cc1C(F)(F)F)c1ccc(Cl)cc1Cl
    -0.94, i
84	CN(c1ccccc1C(=O)N1CCOCC1)S(C)(=O)=O
    0.13, i
85	O=C(O)c1nnn(-c2cccc(C(F)(F)F)c2)c1-c1ccccc1
    -0.76, i
86	CCOc1ccc2oc(-c3ccccc3)c(C(=O)N(C)C)c2c1
    -1.3, i
87	Cc1ccc(CCN2C(=O)c3ccccc3C2C(=O)NCc2cccnc2)cc1 (configuration not stated)
    -0.18, i
88	CCc1cc2cc(C(=O)Nc3ccc(C)cc3)sc2s1
    -0.68, i
89	CCOc1ccc(C(=O)N2CCN(S(=O)(=O)c3cccs3)CC2)c(OCC)c1
    -0.53, i
90	COc1ccc([C@H]2/C=C\CN(C(=O)C3CC3)[C@@H](C)C(=O)N2Cc2ccc(F)cc2)cc1
    -1.6, i
91	CCc1cc(-c2[nH]ncc2-c2ccc(OC)cc2)c(O)cc1O
    -0.09, i
92	CC(C)c1ccc(N(C(=O)C(F)(F)F)C(C(=O)NC2CCCCC2)c2ccncc2)cc1 (configuration not stated)
    1.6, i
93	CC(=O)NC(=S)Nc1cc(C(F)(F)F)ccc1N1CCOCC1
    0.14, i
94	O=C(CNC(=O)c1ccncc1)N/N=C/c1ccc(Br)cc1
    1.6, i
95	CN(c1ccc(C(=O)Nc2ccc3c(c2)OCO3)cc1)S(C)(=O)=O
    -0.66, i
96	COc1ccc(CCN2CC(C(=O)NCCCn3nc(C)cc3C)CCC2=O)cc1 (configuration not stated)
    -2, i
97	CC(C)CC(=O)Nc1ccnn1C1CCN(C(=O)c2ccccc2F)CC1
    -0.18, i
98	COC(=O)c1cc(NC(=O)c2ccoc2C)cc(C(=O)OC)c1
    -0.85, i
99	Cc1ccc(CNC(=O)CCS(=O)(=O)c2ccc3c(c2)NC(=O)CS3)cc1
    0.52, i
100	CC(C)(C)c1ccc(OCC(=O)N(c2ccccn2)C2CCCCC2)cc1
    -2, i
101	C/C(=N\NC(=O)c1cccc(S(=O)(=O)N2CCOCC2)c1)c1ccc(OC(F)F)cc1
    1.1, i
102	Cc1ccc(C2C(C#N)=C(N)Oc3n[nH]c(C)c32)cc1 (configuration not stated)
    0.02, i
103	Nc1nonc1C(=Nc1ccccc1)NO
    -0.48, i
104	COc1ccccc1CNC(=O)c1cc(C(=O)CC(C)C)c[nH]1
    -0.39, i
105	Oc1c(C=Nc2cccnc2)sc2ccccc12
    0.59, i
106	CC(O)[C@H](NC(=O)C1(c2ccccc2)CCN(C(=O)OC(C)(C)C)CC1)C(=O)O (some centres not stated)
    -1.4, i
107	COc1ccccc1/C=N/NC(=O)c1[nH]c(C)c(C(=O)N/N=C/c2ccccc2OC)c1C
    2, i
108	CC(C)N1C(=S)SC(C)(C)C1n1oc(=O)n(-c2ccc(Cl)c(Cl)c2)c1=O (configuration not stated)
    -0.06, i
109	CCOc1ccc2nc(SCC(=O)N3CCCc4ccccc43)sc2c1
    0.34, i
110	Cc1cc(NCCc2ccc(Cl)cc2)n2ncnc2n1
    0.31, i
111	CC(C)(C)OC(=O)N1CCC(C(=O)N[C@H](Cc2ccccc2)C(=O)O)CC1
    0.28, i
112	COc1cccc(C(=O)NCc2ccco2)c1OC
    0.62, i
113	Cn1c(=O)c2c(ncn2CC(=O)Nc2ccc3c(c2)OCO3)n(C)c1=O
    -0.14, i
114	O=C(CN1C(=O)c2cccnc2Oc2ccc(Cl)cc21)NCCCc1ccccc1
    -1.8, i
115	COc1ccccc1CN1CCCC(CNC(=O)c2cccc3ccccc23)C1 (configuration not stated)
    0.34, i
116	CCn1c(SCC(=O)NCc2ccc(C)cc2)nnc1-c1ccncc1
    0.28, i
117	OCc1nn2c(c1Br)NC(c1ccccc1)CC2C(F)(F)F (configuration not stated)
    -0.4, i
118	CCCC1/C(=N/O)CC(c2ccccc2)NC1c1ccccc1 (configuration not stated)
    2.9, i
119	Cc1nc2ccccc2nc(C)c1=NOCc1ccc(C#N)cc1
    0.54, i

Screening data as filed in PubChem.
